Screening data deposited in PubChem by National Center for Advancing Translational Sciences (NCATS).
TRPML1 inh: human mucolipin-1 channel inhibition; Q9GZU1; TRPML1-inducible cells, Ca2+ dye fluorescence, FDSS; hits give low values; inhibition of EC80 agonist-evoked calcium signal; activity change, negative = inhibition, % (no concentration beside the values); hit rate 0.02% among 390,000; AID 624415; in the data active means activity change below about -50%; inconclusive means about -30% to -50%; inactive means above about -30%;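 also: stimulus is agonist 54-4 at its EC80 concentration; % is scaled to controls: 0 for no effect and ±100 for the full control effect; compound concentration not given in the record; the text of the record puts the active cut at -80%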
Target sequence (Q9GZU1 whole entry, looked up): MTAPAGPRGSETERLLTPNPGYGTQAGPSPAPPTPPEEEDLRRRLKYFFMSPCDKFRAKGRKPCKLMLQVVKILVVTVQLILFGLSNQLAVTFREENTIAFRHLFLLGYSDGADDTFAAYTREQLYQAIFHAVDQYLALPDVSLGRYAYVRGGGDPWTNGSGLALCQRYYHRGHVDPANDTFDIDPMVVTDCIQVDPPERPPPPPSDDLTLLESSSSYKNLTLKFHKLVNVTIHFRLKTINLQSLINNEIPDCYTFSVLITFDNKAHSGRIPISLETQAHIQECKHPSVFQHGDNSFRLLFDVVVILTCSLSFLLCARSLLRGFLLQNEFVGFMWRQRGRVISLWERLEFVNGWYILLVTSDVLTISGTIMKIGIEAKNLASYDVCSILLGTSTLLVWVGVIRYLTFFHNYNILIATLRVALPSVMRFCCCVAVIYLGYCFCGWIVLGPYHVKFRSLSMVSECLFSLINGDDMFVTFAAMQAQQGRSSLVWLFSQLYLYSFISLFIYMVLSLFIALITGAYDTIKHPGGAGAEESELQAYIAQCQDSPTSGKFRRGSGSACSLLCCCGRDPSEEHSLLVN
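Calcium fluorescence in TRPML1-DL cells induced overnight with Tet: a 110 s read after compound pin addition, then a 110 s antagonist read after challenge with 54-4 at 4 uM final (EC80).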
CtBP-E1A inh: inhibitors of CtBP/E1A interaction | AlphaScreen GST-E1A/His-CtBP binding, 1536-well; hits give low values; control for the full effect not named in the record | activity change, % (test concentration not listed) | hit rate 0.49% among 340,000; in the data active means activity change below about -65%; inconclusive means about -30% to -65%; inactive means above about -30%; also: % is scaled to controls: 0 for no effect and ±100 for the full control effect; compound concentration not given in the record
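In 5 uL wells, 23 nL compound meets equimolar GST-E1A and His-CtBP (5X stock 125 nM each) for 2 h, 37 °C. Beads (5X, 50 ug/mL) then 1 h, 37 °C, dark.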
TRPML1 agonist: activates the human TRPML1 channel | TRPML1-expressing cells, Ca2+ dye fluorescence, FDSS; host cell line not named in the record; reference of the full effect not given here | activation, % (test concentration not listed) | hit rate 0.12% among 410,000; in the data active = activation above about 50%; inconclusive = about 30% to 50%; inactive = below about 30%; also: 0% is about no effect; the text of the record puts the active cut at 80%
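Calcium fluorescence on an FDSS kinetic reader gave the read-out. Tet-induced TRPML1-DL cells were plated overnight, dye-loaded (Ca8 with quencher, 45-90 min, room temperature, dark), then read 110 s after compound addition, and again 110 s after 4uM final 54-4 (EC80).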
Six1-Eya2 blk: inhibitors of human Six1/Eya2 interaction; activity change, % (test concentration not listed); AID 651725; AlphaScreen GST-Six1/His-Eya2 binding, biochemical; hits give low values; control for the full effect not named in the record; hit rate 0.56% among 360,000; in the data active = activity change below about -65%; inconclusive = about -30% to -65%; inactive = above about -30%; also: % is scaled to controls: 0 for no effect and ±100 for the full control effect; compound concentration not given in the record
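Compounds are tested against tagged Six1 and Eya2 proteins bridged by glutathione donor and nickel acceptor beads; after a one-hour incubation at 37 °C without light, AlphaScreen emission is recorded.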
TRPV1 potentiator: enhances activation of the human vanilloid receptor TRPV1; Q8NER1; TRPV1-expressing cells, Fluo-8 calcium influx, capsaicin EC20 potentiation; host cell line not named in the record; control for the full effect not named in the record; potentiation, % at 8.33 µM; hit rate 0.02% among 320,000; active means potentiation above 80%; inconclusive means 30% to 80%; inactive means below 30%; also: 0% is about no effect
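Cells expressing TRPV1 were dye-loaded with Fluo-8 and read kinetically: 10 s baseline, 3 min after compound (agonist portion), then 2 min after EC20 capsaicin (allosteric enhancer portion). Calcium-bound dye fluorescence at 480/520 nm.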
D2 potentiator: human D2 receptor positive allosteric modulation | DiscoveRx D2 beta-arrestin cells, luminescence, 90 min; 100% = 57 uM dopamine signal | potentiation, % (test concentration not listed) | hit rate 0.23% among 360,000 | AID 624464; active = potentiation of 50% or more; inconclusive = 30% to 50%; inactive = 30% or less;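 also: compound concentration not given in the record; tested on top of an EC20 dose of dopamine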
Target sequence (P14416 whole entry, looked up): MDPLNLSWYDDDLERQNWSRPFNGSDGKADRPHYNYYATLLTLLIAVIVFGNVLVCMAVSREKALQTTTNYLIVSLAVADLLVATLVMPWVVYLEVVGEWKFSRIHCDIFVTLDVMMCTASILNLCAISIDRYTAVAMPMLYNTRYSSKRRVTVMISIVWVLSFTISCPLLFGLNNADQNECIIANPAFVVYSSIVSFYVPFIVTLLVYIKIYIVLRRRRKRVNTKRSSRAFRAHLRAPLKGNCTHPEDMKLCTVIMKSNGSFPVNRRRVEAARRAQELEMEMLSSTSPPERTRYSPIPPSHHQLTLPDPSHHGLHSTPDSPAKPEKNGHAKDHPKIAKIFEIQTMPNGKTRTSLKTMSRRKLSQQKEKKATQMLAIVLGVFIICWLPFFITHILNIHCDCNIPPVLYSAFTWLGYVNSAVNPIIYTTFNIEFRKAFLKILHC
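D2 cells co-treated with compound plus 50 nM dopamine (EC20) for 90 min at 37 deg C to detect potentiation. Beta-arrestin recruitment was read as enzyme-fragment luminescence after 1 h at ambient temperature. Full response was set by 57 uM dopamine.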
Starred values were filed as active, the others as inactive; ? = inconclusive; · = not tested or not shown; & = joins results of further samples. Hits appear at their usual frequency, and some 0.95% of all compounds hit somewhere here.

The line under a structure holds: TRPV1 potentiator	D2 potentiator	TRPML1 inh	Six1-Eya2 blk	CtBP-E1A inh	TRPML1 agonist
- Cc1ccccc1NS(=O)(=O)c1cc2c(cc1C)N(C)CCO2
  -2	0	0	-10	-9	-0.8
- Cc1ccc(NC2CCCN(C(=O)CCC(=O)c3ccccc3)C2)cc1C (configuration not stated)
  4	-13	22	-16	-30	0.8
- COc1ccc([N+](=O)[O-])cc1NC(=O)CCCOc1ccccc1
  10	-19	11	-9	-2	1.7
- Cc1c(C(=O)O)oc2ccc(S(=O)(=O)N3CCCCC3C(=O)O)cc12 (configuration not stated)
  6	-7	-14	4	6	-0.6
- COc1ccc(Cl)cc1NC(=O)CSc1nc(N2CCOCC2)nc(N2CCOCC2)n1
  0	-5	8	0	-6	0.0
- COCCOC(=O)c1c(C)nc(SCC(=O)Nc2cccc3ccccc23)c(C#N)c1-c1ccco1
  4	-13	-5	-2	0	2.1
- CC(=O)Nc1ccc(NC(=O)CCC(=O)OCC(=O)c2ccc(F)cc2)cc1
  -10	-12	0	-19	·	1.1
- S=C(Nc1ccccc1)Nc1ccc(Cl)cn1
  12	-4	-2	-1	-1	-0.6
- O=c1[nH][nH]c2c1[C@@H](c1ccc(F)cc1)O[C@H](CCc1ccccc1)C2
  ·	·	·	-4	-8	-0.5
- FC(F)(F)c1cccc(Nc2ncnc3ccccc23)c1
  -10	-3	-13	5	-1	0.5
- O=[N+]([O-])c1cccc(-c2nc(-c3cccs3)c(-c3cccs3)[nH]2)c1
  4	-2	14	?	?	-0.6
- COc1ccc(S(=O)(=O)Nc2c(NC3CCCCC3)c3ccccc3oc2=O)cc1
  -10	-8	15	1	-6	0.4
- O=C(c1ccoc1)N1CCC2(CC1)Oc1ccc(Cl)cc1C(=O)C21CC(c2ccc(Cl)cc2)=NO1 (configuration not stated)
  18	-17	1	-14	-17	0.4
- COc1ccc(C(O)P(=O)(OC(C)C)OC(C)C)cc1OC (configuration not stated)
  10	4	19	11	9	0.4
- Cc1ccc(-c2nc3cnccn3c2Nc2ccccc2)o1
  ·	7	26	-6	0	-1.2

Record cards (already shown).
COc1ccc([N+](=O)[O-])cc1NC(=O)CCCOc1ccccc1 is entered as TRPV1 potentiator: 10; D2 potentiator: -19; TRPML1 inh: 11; Six1-Eya2 blk: -9; CtBP-E1A inh: -2; TRPML1 agonist: 1.7
O=C(c1ccoc1)N1CCC2(CC1)Oc1ccc(Cl)cc1C(=O)C21CC(c2ccc(Cl)cc2)=NO1 (configuration not stated) is entered as TRPV1 potentiator: 18; D2 potentiator: -17; TRPML1 inh: 1; Six1-Eya2 blk: -14; CtBP-E1A inh: -17; TRPML1 agonist: 0.4

Further compounds:
The line under a structure holds: TRPV1 potentiator	D2 potentiator	TRPML1 inh	Six1-Eya2 blk	CtBP-E1A inh	TRPML1 agonist
- CCc1c(C)nc2cc(-c3ccc(OC)c(OC)c3)nn2c1NCC1CC1
  20	20	-1	-2	-9	-1.2
- COC(=O)c1ccc(C(=O)N2CCCC(Nc3ccc(F)c(F)c3)C2)cc1 (configuration not stated)
  -11	-21	-14	-2	1	0.4
- Cc1cc(C)c(NC(=O)CN(C2CCCCC2)C2CCCCC2)c(C)c1
  -9	-10	11	6	-6	0.1
- CCCCC(CC)CN1C(=O)/C(=C/c2ccncc2)SC1=S (configuration not stated)
  17	12	-16	2	-1	0.6
- COc1ccc(-c2ccc(S(=O)(=O)n3nc(OC(=O)c4cccs4)cc3N)cc2)cc1
  19	-5	7	-16	0	1.7
- COc1cc(/C=C/C(=O)O)cc(S(=O)(=O)Nc2ccc3nc(C)sc3c2)c1OC
  0	3	-11	0	7	0.4
- CC(=O)c1ccc(-c2cnc3c(NC=O)cc(-c4ccccc4Oc4ccccc4)cn23)cc1
  ·	-5	·	9	-22	-0.1
- Cc1ccc(OCCC(=O)OC(C)C(=O)NC2CC2)cc1 (configuration not stated)
  7	-3	18	7	4	-0.5
- Cn1c(SCC(=O)N2CCCCCC2)nc2c([nH]c3ccccc32)c1=O
  -4	4	12	-4	-5	1.0
- COc1ccc(C2(c3ccc(OC)cc3)NC(=O)N(CC(=O)NC3(C#N)CCCCC3)C2=O)cc1
  -4	-1	-16	7	5	1.6
- CC1N=C(SCC(=O)c2ccc(F)cc2)N2C(C)N=C(SCC(=O)c3ccc(F)cc3)N12 (configuration not stated)
  ·	-5	5	-21	-2	-0.2
- CS(=O)(=O)N1CCc2ccc(NC(=O)C3CCCO3)cc2C1 (configuration not stated)
  9	6	18	-3	2	0.2
- COc1ccc(-c2cn3c(C)c(C(=O)Nc4ccncc4)sc3n2)cc1
  5	0	9	-2	-11	0.2
- COc1ccc(-n2c(SCC(N)=O)nnc2-c2ccccc2F)cc1
  28	-5	1	5	-6	0.0
- CCn1nc(-c2ccccc2)c2nc3ccccc3nc21
  -8	-19	-7	68	43	?

The line under a structure holds: TRPV1 potentiator	D2 potentiator	TRPML1 inh	Six1-Eya2 blk	CtBP-E1A inh	TRPML1 agonist
- Cc1cc(OCc2cc(C(=O)N(C)Cc3nonc3C)no2)cc(C)c1Cl
  2	-3	56	13	24	2.2
- CCn1c(SCc2ccccc2)nc2cc(S(N)(=O)=O)ccc21
  -27	-2	2	-5	-3	-0.4
- Cc1ccc(/C(O)=C/C(=O)C(=O)NC23CC4CC(CC(C4)C2)C3)cc1
  -7	-7	-6	-6	3	-0.4
- Nc1ccc(SCCN2C(=O)c3ccccc3C2=O)cc1
  -10	-8	-5	-2	-1	-1.0
- CCOC(=O)CC1C(=O)NCCN1C(=O)c1c(Cl)cccc1Cl (configuration not stated)
  -19	7	-11	5	5	0.8
- O=C(CCc1ccccc1)OCC(=O)c1cccc([N+](=O)[O-])c1
  -11	-29	19	-17	-24	1.4
- CCOCC(=O)Nc1c(C(=O)Nc2ccc(OC)cc2OC)oc2ccccc12
  11	-5	9	4	5	-0.4
- Cc1nc2ccccn2c(=O)c1NC(=O)c1ccco1
  ·	6	1	2	5	-0.8
- CCOC(=O)C[C@H]1c2cc(C(F)(F)F)ccc2S(=O)(=O)N1Cc1ccccc1
  ·	-13	17	8	-2	-0.9&-0.3
- CC(C)c1ccc(NC(=O)Cn2ncc3ccccc32)cc1
  13	-15	-20	-1	0	2.3
- CC1(C(=O)Nc2ccc3ccccc3c2)CCC(=O)N1CCCn1ccnc1 (configuration not stated)
  ·	-11	·	0	-2	-0.4
- O=C(NCCO)C1CCN(C(=O)c2ccc(-c3ccccc3)cc2)CC1
  7	-6	-20	14	-5	-0.3
- CC1CCCCC1NCC(=O)Nc1ccccc1C(=O)Nc1ccccc1 (configuration not stated)
  ·	-18	-17	-7	-4	0.7
- CC(C)(C)NC(=O)C1CC(=O)OC12CCCCC2 (configuration not stated)
  7	-2	-2	5	0	-0.5
- COc1ccc(S(=O)(=O)N2CCC(C(=O)N3CCCC3)CC2)cc1
  -9	-2	-12	3	15	-0.2

The line under a structure holds: TRPV1 potentiator	D2 potentiator	TRPML1 inh	Six1-Eya2 blk	CtBP-E1A inh	TRPML1 agonist
- COc1ccc(Nc2c(C3CC3)nc3nc(C)cc(C)n23)cc1
  ·	·	·	2	-4	-1.1
- CN(Cc1cccs1)C(=O)c1ccc(S(=O)(=O)NCc2ccco2)cc1
  -4	-14	4	-2	·	-0.2
- O=C(NCCc1ccco1)C(=O)NCCC1CCCCN1S(=O)(=O)c1ccccc1 (configuration not stated)
  -13	-9	35	-22	0	0.7
- O=C(NCc1ccc(Cl)s1)C1CCC(=O)N(CCc2cccc(F)c2)C1 (configuration not stated)
  -14	-12	1	5	2	-0.2
- Cc1cccc(NC(=O)CNC(=O)CSc2nc(N)cc(N)n2)c1C
  15	-9	-1	8	-2	1.1
- CC[C@H]1OC(=O)[C@H](C)[C@@H](O[C@H]2C[C@@](C)(OC)[C@@H](O)[C@H](C)O2)[C@H](C)[C@@H](O[C@@H]2O[C@H](C)C[C@H](N(C)C)[C@H]2O)[C@](C)(O)C[C@@H](C)CN(C)[C@H](C)[C@@H](O)[C@]1(C)O
  ·	-8	0	5	-14	-0.7
- CC(C)c1ccc(NC(=O)CN2C(=O)NC(C)(C3CC3)C2=O)cc1 (configuration not stated)
  -6	-11	15	1	-18	0.7
- Cc1ccc(CN2CC(C(=O)Nc3ccccc3N3CCCC3)CC2=O)cc1 (configuration not stated)
  -15	-4	7	-8	5	3.0
- CCCSc1ncccc1C(=O)O
  1	1	57	6	0	1.8
- O=C(CSc1nnc(-c2cccs2)n1-c1ccccc1)Nc1ccccc1
  -8	-4	6	-3	-1	1.4
- Cc1cc(N2CCOCC2)nc(C(C)C)n1
  -4	-13	-14	36	-14	0.0
- Cc1ccc(CSCC(=O)Nc2ccccc2F)cc1
  -5	-14	17	7	9	2.1
- O=C(Cn1c2c(sc1=O)C1c3ccccc3OCC1CS2)Nc1ccc(Cl)c(Cl)c1 (configuration not stated)
  2	-5	-5	-3	6	0.4
- O=C(CN(c1ccc(F)cc1)S(=O)(=O)c1ccccc1)N1CCOCC1
  ·	9	-11	10	-3	-0.1
- CCC(=O)Nc1cc(C)c(OC)c(C)c1
  -2	-5	0	8	-3	0.6

The line under a structure holds: TRPV1 potentiator	D2 potentiator	TRPML1 inh	Six1-Eya2 blk	CtBP-E1A inh	TRPML1 agonist
- COc1cc(CC(=O)Nc2cc(S(C)(=O)=O)ccc2Cl)cc(OC)c1OC
  0	0	-8	0	0	0.6
- COc1cc(OC)cc(C(=O)NC2CC(C)(C)NC(C)(C)C2)c1
  3	-14	18	-1	-15	0.2
- COc1ccc(NS(=O)(=O)c2ccc(N3CCOCC3)c(N)c2)cc1
  6	1	-7	8	0	0.9
- COc1cccc(NC(=O)[C@H](CC(C)C)NC(=O)N2CCn3c2nc2ccccc23)c1
  11	-14	13	-1	-3	0.7
- CN(CC(=O)Nc1ccc(Cl)c(C(F)(F)F)c1)C(=O)C1CCC1
  -6	-24	3	-1	7	0.2
- CCOC(=O)CCSc1nc(C)c2cc(C)c(C)cc2n1
  ?	-18	19	9	18	2.0
- CC1CC(C)CN(C(=O)CSc2nnc3ccccn23)C1 (configuration not stated)
  ·	-17	17	7	-16	1.7
- CCCCNS(=O)(=O)c1ccc(NC(=O)C(Sc2ccccc2)c2ccccc2)cc1 (configuration not stated)
  3	11	-9	2	4	0.1
